Mtb MenB inh: M. tuberculosis MenB inhibitors, primary screen, biochemical, absorbance. 1,4-dihydroxy-2-naphthoyl-CoA synthase (Mycobacterium tuberculosis (strain ATCC 25618 / …. MenB enzyme assay, absorbance read-out; some hits fall short of the stated cut. inhibition, %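 (about 12 µg/mL by stock and volumes)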. 100,000 compounds, 0.43% hits. AID 540299, 2011;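 active means mean of two replicates above 30%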;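 further: 0% = no compound and 100% = wells with inactive enzyme; the first replicate is given; strong numbers were not always called active; inactives centre near -10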
Target sequence (P9WNP5 whole entry, looked up): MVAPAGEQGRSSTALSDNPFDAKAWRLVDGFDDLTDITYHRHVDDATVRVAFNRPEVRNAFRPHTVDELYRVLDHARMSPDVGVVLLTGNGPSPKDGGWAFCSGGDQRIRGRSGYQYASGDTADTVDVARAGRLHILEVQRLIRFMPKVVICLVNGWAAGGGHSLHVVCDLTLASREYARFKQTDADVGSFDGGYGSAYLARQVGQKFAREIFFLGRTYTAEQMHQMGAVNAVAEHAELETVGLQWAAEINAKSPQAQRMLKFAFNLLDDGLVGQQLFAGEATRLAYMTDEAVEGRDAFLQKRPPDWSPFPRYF
MbtI inh: MbtI salicylate synthase inhibitors, primary screen, biochemical, fluorescence intensity | purified MbtI enzyme, fluorescence intensity read-out | P9WFX0 | AID 493033, 2011 | inhibition, %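 (about 17 µg/mL by stock and volumes)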 | 100,000 compounds, 0.89% hits;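 active means above 50% in both replicates, above 80% if mildly self-fluorescent; inactive means the rest, strongly fluorescent compounds included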;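 further: 0% = mean of negative and 100% = mean of positive controls; one replicate is shown; some compounds called inactive have numbers as strong as hits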
Target sequence (P9WFX0 whole entry, looked up): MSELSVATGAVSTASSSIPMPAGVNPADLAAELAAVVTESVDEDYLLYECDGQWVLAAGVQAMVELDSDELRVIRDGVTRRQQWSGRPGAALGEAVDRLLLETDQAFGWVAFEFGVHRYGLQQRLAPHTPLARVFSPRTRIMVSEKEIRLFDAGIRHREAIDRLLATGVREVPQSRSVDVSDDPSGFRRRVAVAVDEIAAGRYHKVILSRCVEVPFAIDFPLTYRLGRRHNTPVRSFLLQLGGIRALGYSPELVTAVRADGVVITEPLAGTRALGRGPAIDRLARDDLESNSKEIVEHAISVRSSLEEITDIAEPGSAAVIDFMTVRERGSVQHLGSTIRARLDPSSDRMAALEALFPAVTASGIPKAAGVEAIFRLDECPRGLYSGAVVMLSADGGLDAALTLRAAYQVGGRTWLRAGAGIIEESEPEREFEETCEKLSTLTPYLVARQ
Polio RdRp inh: poliovirus RdRp elongation inhibitors, primary screen, biochemical, fluorescence polarization, total intensity. poliovirus polymerase elongation; stronger effect = lower value. % elongation, % (compound at 16.7 µg/mL). 150,000 compounds, 0.66% hits. AID 588519, 2011; in the data active means % elongation below about 90%; further: some results filed as inactive read as strong as hits
Polio RdRp inh intensity: recorded beside Polio RdRp inh, whose call it bears; % elongation; measured here: total intensity read-out; formula for this scale not given here;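 total fluorescence in place of polarization; lower means less elongation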
Active calls of the source: *; x = no result given; & = joins results of further samples.

#	molecule	MbtI inh	Polio RdRp inh intensity	Polio RdRp inh	Mtb MenB inh
1	NS(=O)(=O)c1ccc(-c2ccc(/C=C3\COc4ccccc4C3=O)o2)cc1	-1	164	151	-101
2	COC(=O)c1cccc(NC(=O)CC(C)C)c1	0	102	100	-4
3	COc1cc(OC)cc(C(=O)Nc2cccc(-c3nn4c(C)nnc4s3)c2)c1	-3	103	103	-16
4	CCCCC(=O)Nc1cccc(-c2cn3ccsc3n2)c1	6	100	102	14
5	Oc1ccc(NC(=S)Nc2ccc(O)cc2)cc1	-4	102	106	-4
6	O=C1c2ccccc2C(=O)N1CCOc1ncnc2c(Cl)cc(Cl)cc12	-1	107	106	-13
7	Cc1ccc(NC(=O)c2ccccc2C)cc1	-1	102	100	-18
8	CC(C)NC(=S)N/N=C/c1ccn[nH]1	19	100	103	-68
9	O=C(Cn1ncc2c(=O)oc3ccccc3c21)Nc1cccc(Cl)c1	7	102	100	-13
10	C=CCN(C(=O)c1ccccc1)c1ccc(OC)cc1	-11	104	101	1
11	O=C(NC1CCCCC1)c1ccco1	-8	99	100	-2
12	CC(C)Oc1ccc(Cc2cnc(=S)[nH]c2N)cc1	-4	105	101	3
13	Cc1nn(-c2ccc(F)cc2)c(-n2cccc2)c1C(=O)NCC(C)c1ccccc1 (stereo not drawn)	-6	101	101	0
14	CCOc1ccc(-n2c(N)c3c(N)nc(N4CCOCC4)c(C#N)c3c(C#N)c2=S)cc1	-27	111	102	-6
15	c1ccc2cc3c(Nc4ccc(N5CCOCC5)cc4)ccnc3cc2c1	-4	106	101	-24

Six compounds already listed, arranged by number of heavy atoms, highest first:
#	molecule	MbtI inh	Polio RdRp inh intensity	Polio RdRp inh	Mtb MenB inh
14	CCOc1ccc(-n2c(N)c3c(N)nc(N4CCOCC4)c(C#N)c3c(C#N)c2=S)cc1	-27	111	102	-6
1	NS(=O)(=O)c1ccc(-c2ccc(/C=C3\COc4ccccc4C3=O)o2)cc1	-1	164	151	-101
6	O=C1c2ccccc2C(=O)N1CCOc1ncnc2c(Cl)cc(Cl)cc12	-1	107	106	-13
4	CCCCC(=O)Nc1cccc(-c2cn3ccsc3n2)c1	6	100	102	14
5	Oc1ccc(NC(=S)Nc2ccc(O)cc2)cc1	-4	102	106	-4
7	Cc1ccc(NC(=O)c2ccccc2C)cc1	-1	102	100	-18

(more compounds)
#	molecule	MbtI inh	Polio RdRp inh intensity	Polio RdRp inh	Mtb MenB inh
16	O=C1c2ccccc2C(=O)N1CCCn1nnc(-c2ccc(N3CCOCC3)cc2)n1	-1	104	105	-18
17	Cc1ccc(Oc2ncccc2C(=O)n2ccc(-c3cccs3)n2)cc1	-19	97	100	3
18	N=c1c2c3c(sc2ncn1CCN1CCOCC1)CCCCC3	-7	100	102	-20
19	O=S(=O)(NCC12CC3CC(CC(C3)C1)C2)c1ccc(Cl)c2ccccc12	x	98	101	5
20	CC(C)Cn1c(SCC(=O)N2CCCC2=O)nc2cc(Cl)ccc2c1=O	-2	103	104	-23
21	CC(=O)NCCOc1cc(C)ccc1C(C)C	-12	102	100	-10
22	COC(=O)C1=C(Nc2ccc(OC(=O)Nc3ccc(OC(F)(F)F)cc3)cc2)CSC1	0	106	100	7
23	Cn1c(=O)n(Cc2ccc(F)cc2)c(=O)c2c1nc1oc(-c3ccc(Cl)cc3)cn12	2	107	108	-7
24	CC1CCCCC1NS(=O)(=O)c1ccc(Cl)cc1 (stereo not drawn)	2	98	103	-17
25	CCOC(=O)COc1ccccc1C1C(C(=O)OCC)=C(N)Oc2n[nH]c(-c3ccccc3)c21 (stereo not drawn)	-2	101	101	-25
26	OCC(CO)(CO)N=Cc1cc(Br)ccc1O	-6	98	100	-11
27	Oc1oc(-c2ccccc2)nc1/C=N/c1ccccn1	-3	105	102	-46
28	CCOC(=O)c1c(NC(C)=O)no[n+]1[O-]	17	99	99	-26
29	CC(C)CCn1c(SCc2ccccc2F)nc2nccnc2c1=O	-5	101	101	-10
30	CS(=O)(=O)c1ccc(Cl)c(NC(=O)C2CCCC2)c1	-11	x	x	-15
31	COc1ccc(-c2[nH]ncc2C(=O)NC2CCCCC2)cc1	4	98	102	6
32	Cc1ccc2c(c1)CCCN2CC(=O)NCC(F)(F)F	4	112	101	-21
33	CC(Sc1nc(C2CC2)n(-c2ccccc2)n1)C(=O)NCc1ccc2c(c1)OCO2 (stereo not drawn)	6	95	100	-6
34	CC1(C)OC(=O)C(C#N)=C1/C=C/c1ccco1	23	103	101	-471
35	Cc1noc(C)c1CSc1ncccc1C(=O)N1CCN(S(=O)(=O)c2ccccc2C#N)CC1	2	122	108	-33
36	O=C(Nc1nncs1)c1cccc(Cl)c1	31	99	99	-11
37	NNc1ccc(C(=O)O)cc1	-3	102	97	-28
38	Cc1cc(C)cc(NC(=O)NCC(O)c2ccccc2)c1 (stereo not drawn)	-2	98	100	-17
39	O=C(NCc1ccco1)c1noc2c1CCCC2	-8	102	103	-11
40	CCC(CC)c1nc(Nc2ccccc2)c2ccccc2n1	47	95	102	-42
41	COc1ccc(S(=O)(=O)NCC(F)(F)F)cc1Br	3	96	101	-23
42	CCN(C(=O)c1cnccc1C(F)(F)F)c1nc2cc(Cl)ccc2s1	-9	108	102	-15
43	CC(=O)Nc1ccc(SCC(=O)N2CC(C)CC(C)C2)cc1 (stereo not drawn)	18	103	100	-5
44	CC1(C)Cc2c(sc3nc(=O)n(Cc4ccco4)c(N)c23)CO1	-15	104	101	12
45	CC(C)(C)P(=Nc1ccc(S(N)(=O)=O)cc1)(N1CCOCC1)N1CCOCC1	16	106	100	-10
46	COc1ccc(-c2onc(C)c2C)cc1S(=O)(=O)N(C)C(C)CCc1ccco1 (stereo not drawn)	-14	103	101	-2
47	COc1ccc(C(=O)NCc2nc3ccccc3[nH]2)cc1	-2	97	104	x
48	COC(=O)Cn1cc(C(=O)c2ccccc2)c2ccccc21	x	111	110	-22
49	O=C(CONC1=NCCCCC1)Nc1ccc(OC(F)(F)F)cc1	-6	105	99	-18
50	NC(=O)CSc1nnc(COc2ccccc2Cl)n1C1CC1	-9	x	x	-24
51	Cc1ccc(NC(=O)c2oc3ccccc3c2C)cc1	7	102	101	-9
52	O=C(Nc1ccccc1)c1cccc(S(=O)(=O)NCC23CC4CC(CC(C4)C2)C3)c1	x	106	105	-11
53	Cc1ccc(C)c(Cn2c(CCCO)nc3ccccc32)c1	5	102	101	-31
54	Cc1cccc(-c2cc3nc4c(c(N5CCN(Cc6ccc7c(c6)OCO7)CC5)n3n2)CCCC4)c1	7	101	100	8
55	CN(C)C(=S)N(C#N)c1nc(N(C)C)nc(N(C)C)n1	16	103	101	-25
56	CC(NC(=O)CSc1ncccc1C(=O)O)C1CC2CCC1C2 (stereo not drawn)	2	101	98	17
57	Cc1nc(COC(=O)c2ccc(CO)cc2)cs1	-8	104	101	-9
58	CCS(=O)(=O)c1nc2ccccc2n1Cc1ccc(C(C)(C)C)cc1	0	96	101	-40
59	CCC1(CO)CSC(Nc2ccc(Cl)cc2)=N1 (stereo not drawn)	-153	94	95	-15
60	Cc1ccc(C(=O)OCC(=O)c2ccc(-c3ccccc3)cc2)s1	-7	103	102	x
61	O=C1CC(c2ccccc2)CC(=O)C1=CN1CCOCC1 (stereo not drawn)	18	105	99	-13
62	O=C(CN(CC(=O)NC1CC1)Cc1ccc(Cl)cc1)NC1CC1	-8	117	108	-15
63	Cc1ccc(C(=O)N2C(C)CCCC2C)c(Cl)c1 (stereo not drawn)	-7	102	103	-43
64	CCC(C(=O)Nc1cccc(C)c1C)n1nc(C)c2sc3ccccc3c2c1=O (stereo not drawn)	40	100	103	-10
65	CCSc1nnc(NC(=O)C2Cc3ccc(C)cc3C(=O)O2)s1 (stereo not drawn)	-8	102	101	1
66	O=C(O)/C=C/c1cccc(Oc2ccccc2)c1	26	97	100	-17
67	CN(NC=C(C#N)C#N)c1cccc(F)c1C#N	-6	101	101	-4
68	CCS(=O)(=O)N1Cc2ccccc2CC1C(=O)N1CCN(c2ccccc2)CC1 (stereo not drawn)	-11	107	107	-24
69	CC1CCCC(NC(=O)COC(=O)c2cccc(S(=O)(=O)N(C)C)c2)C1C (stereo not drawn)	-4	95	100	-18
70	Nc1c(NCCN2CCOCC2)c2ccccc2oc1=O	8	102	103	-59
71	NS(=O)(=O)c1ccc(-n2c(-c3ccncc3)n[nH]c2=S)cc1	15	101	101	-12
72	CC(C)(C)OC(=O)N1CCC(OCC(=O)O)CC1	1	103	100	4
73	CC(C)c1cc(C(=O)O)no1	-2	102	97	-55
74	O=C1C2CC=CCC2C(=O)N1CN1CCN(Cc2ccccc2)CC1 (stereo not drawn)	-5	112	106	-2
75	c1ccc(-c2noc(CCC3CCCC3)n2)cc1	-13	102	99	-16

The list goes on:
#	molecule	MbtI inh	Polio RdRp inh intensity	Polio RdRp inh	Mtb MenB inh
76	CCCCn1nnnc1NCc1ccccc1	-5	100	99	1
77	CN(C(=O)COC(=O)c1ccccc1Br)C1CCCCC1	6	99	96	2
78	CC1=CCC2C(=O)N(C3CCCCC3)C(=O)C2C1 (stereo not drawn)	-3	104	103	-11
79	CCS(=O)(=O)c1ccc(O)c(NCN2C(=O)S/C(=C\c3ccc(F)cc3)C2=O)c1	5	108	103	-4
80	CN1CCN(Cn2c(=S)oc3cc(S(=O)(=O)Nc4ccccc4Cl)ccc32)CC1	10	102	101	-21
81	Cn1c(=O)oc2cc(S(=O)(=O)NCc3ccco3)ccc21	-6	104	105	-12
82	Cc1noc(C)c1Cc1ccc(C(=O)O)s1	-1	103	103	-36
83	CCC(CO)n1c(SCC(=O)Nc2ccc(C)c(C)c2)nc2cc(OC)c(OC)cc2c1=O (stereo not drawn)	25	93	103	-35
84	C=C1N(C)c2ccc(NC(=O)c3ccccc3)cc2C1(C)C	22	123	113	-11
85	O=C(OCc1ccccc1)c1cccc(-c2nnn(Cc3ccccc3)n2)c1	x	107	103	-20
86	C=CCNc1nc(CC(=O)OCC)cs1	x	111	104	-11
87	CC(=O)N(C)N1c2ccccc2CCc2ccccc21	8	103	103	0
88	CC(N)c1cccnc1 (stereo not drawn)	-2	109	102	-16
89	O=C(CCCn1c2ccccc2c2cn[nH]c(=O)c21)NCc1ccccc1	48	102	105	-20
90	Nc1nnc(COc2ccccc2)s1	5	103	100	11
91	c1coc(CN=C2NC(=NCc3ccco3)c3ccccc32)c1	-3	102	102	-27
92	COCCNC(=O)c1cccc(NC(=O)C2=C(C)OCCS2)c1	12	102	100	-11
93	Cc1ccc(C(=O)OCC(N)=O)cc1N	6	94	100	-14
94	CSc1ccc(C2C3(C#N)C(N)=NC4(OCCO4)C23C#N)cc1 (stereo not drawn)	-3	102	100	12
95	CCCc1[nH]n(-c2ccccc2)c(=O)c1C(C)=NCCOC	12	102	103	30
96	Cc1cc2ccccc2c(N=Cc2cc(Br)cc(Br)c2O)c1C#N	-103	101	102	-28
97	COc1ccc(OC)c(S(=O)(=O)Nc2cc(C(=O)O)ccc2N2CC3CC(C2)c2cccc(=O)n2C3)c1 (stereo not drawn)	24	101	99	-13
98	Cc1ccc(NS(=O)(=O)c2ccc3[nH]c(=O)sc3c2)cc1F	-12	103	102	-13
99	Cc1ccc(NC(=O)CN(C)C(=O)C2COc3ccccc3O2)cc1 (stereo not drawn)	-6	107	102	-13
100	Oc1ccc(-c2cccc(-c3ccc(O)cc3)n2)cc1	x	102	107	-30
101	CC1CCCC(C)N1C(=O)C1CC(c2ccc(F)cc2)=NO1 (stereo not drawn)	-2	106	104	5
102	Cc1c(C=Nc2ccc3c(c2)OCCO3)c2ccccc2n1C	-4	96	103	x
103	CC(C)[C@]12O[C@H]1[C@@H]1O[C@]13[C@]1(O[C@H]1C[C@H]1C4=C(CC[C@@]13C)C(=O)OC4)[C@@H]2O	-12	103&103	104&103	-26
104	CCCSc1nnc(Nc2ccccc2F)s1	4	114	110	-34
105	CCOc1ccc(N=C2C(=O)N(CN3CCCCC3)c3ccccc32)cc1	-43	99	99	-47
106	CC1Cc2cc(S(=O)(=O)NCc3ccccc3)ccc2N1C(=O)C1CC1 (stereo not drawn)	-5	98	107	-31
107	CCCN1CCc2nc(N3CCOCC3)ncc2C1	-31	103	102	-1
108	CCOc1cc(/C=N/n2c(C)nnc2-n2nc(C)cc2C)cc(Br)c1O	3	103	101	2
109	CCOC(=O)Cc1csc(SCN2C(=O)c3ccccc3C2=O)n1	16	103	101	-29
110	COc1ccc(C(=O)OCC(=O)N(C2CCCCC2)C2CCS(=O)(=O)C2)c(O)c1 (stereo not drawn)	12	99	96	-15
111	CSc1cccc(NC(=O)C2CCCN2S(=O)(=O)c2ccccc2)c1 (stereo not drawn)	-3	101	103	-5
112	CC(NC=O)c1nc2ccccc2n1C (stereo not drawn)	10	100	105	-8
113	CCOC(=O)Cc1nc(C)cc(C)n1	-8	103	100	x
114	CC(c1ccccc1)n1c(SCC(=O)c2ccc3c(c2)OCCO3)n[nH]c1=O (stereo not drawn)	-8	98	100	-2
115	O=C1CCCC2=C1C(c1cccc(Br)c1)Nc1ccccc1N2 (stereo not drawn)	3	107	102	7
116	CCOC(=O)C1=C(CSCC(=O)OCc2ccc(C#N)cc2)NC(=O)NC1C (stereo not drawn)	-6	106	104	0

Screening data as filed in PubChem.
